Source: PubChem (National Center for Advancing Translational Sciences (NCATS))
Sfp inh – Sfp phosphopantetheinyl transferase inhibition | Q9F4F7 | Biochemical Sfp PPTase activity, qHTS | Potency, µM, inactives show max response, negative = inhibition, hits mostly inhibitors | 3.5% of 310,000 active | AID 1490; active = well fitted inhibition curve with a large enough effect; inconclusive = small, poorly fitted or top-dose-only effect, or another doubt; inactive = no such curve, though single readings can be large or run the other way;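 also: the enzyme is Sfp with the accession as filed and its product quenches rhodamine fluorescence; potency is read from the fitted curve at half-maximal effect; 0% = enzyme reaction without inhibitor and -100% = no enzyme wells; top concentration of the series not given in the record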
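Sfp 15 nM + cpd, 15 min RT; start w/ rhodamine-CoA 5 uM, BHQ-2-YbbR 12.5 uM (final); 50 mM Hepes pH 7.6, 10 mM MgCl2, 0.01% NP-40, 0.01% BSA; read 525/598 nm at 0 and 30 min.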
PINK1 modulator – modulators of PINK1 expression; PINK1 immunofluorescence, high-content cytometry, 24 h; Potency, µM (doses to about 76.6 µM), for the others: top-dose activation (PINK1 increase), hits mostly activators; 0.2% of 410,000 active; AID 624263; active = well fitted activation curve with a large enough effect; inconclusive = small, poorly fitted or top-dose-only effect; inactive = flat fitted curve, though single readings scatter; cell line not stated here;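 also: potency is read from the fitted curve at half-maximal effect; % of control where 0% means no effect; nearly all actives have a fitted effect of over 65% in size; a mitochondrial uncoupler was the plate control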
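Readout is PINK1 immunofluorescence, quantified alongside mitochondrial, cell and nuclear markers by laser-scanning microplate cytometry. Cells from a stable line were exposed to compound titrations (5 concentrations) for 24 hours, with CCCP controls.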
Menin-MLL FL inh – inhibitors of human menin-MLL interaction, wild-type MLL peptide; 290,000 tested, under 10 active; Fluorescence polarization, fluorescein-MLL peptide displacement from menin; AID 1766; FP activity change, % at 61.4 µM; inconclusive = falling polarisation curve, or a change in total fluorescence; inactive = total fluorescence flat and polarisation flat or rising; no compound was filed as active; the % refers to the polarisation; negative = inhibition;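 also: % of control where 0% means no effect; inhibitors lower the polarisation; unlabelled MLL peptide was the positive control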
gsp ag – gsp mutant agonism | 0.13% of 340,000 active | gsp mutant cells, cAMP HTRF, 30 min; control for the full effect not named in the record | Potency, µM (doses to about 76.9 µM), inactives show top-dose activation (cAMP increase), actives largely listed as activators; active = well fitted activation curve with a large enough effect; inconclusive = small, poorly fitted or top-dose-only effect, or another doubt; inactive = no such curve, though single readings can be large or run the other way; cell line not stated here;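 also: phosphodiesterase inhibitor Ro 20-1724 added with compounds to block cAMP breakdown; potency is read from the fitted curve at half-maximal effect; nearly all actives have a fitted effect of over 60% in size; about a fifth of the inactives were tested at one dose only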
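Cells in DMEM/10% FBS with G418 were pretreated with compounds in DMSO plus […] (300 uM stock) for 30 min at 37C. cAMP was measured by HTRF (cAMP-d2 plus anti-cAMP antibody-K) after 30 min at room temperature.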
ClpP mod – qHTS Assay for Activators of ClpP. purified B. subtilis ClpP, FRET peptide cleavage, 20 min. Potency, µM (doses to about 57.5 µM), inactives show top-dose activity change, negative = active. 1.9% of 340,000 active; active = well fitted falling curve with a large enough effect; inconclusive = small, poorly fitted or top-dose-only effect; inactive = no such curve, though single readings can be large or run the other way; also: potency is read from the fitted curve at half-maximal effect; the source files actives as falling curves though it sought activators and does not explain the sign; nearly all actives have a fitted effect of over 65% in size; many hits overshoot -100%
Target sequence (P80244 whole entry, looked up): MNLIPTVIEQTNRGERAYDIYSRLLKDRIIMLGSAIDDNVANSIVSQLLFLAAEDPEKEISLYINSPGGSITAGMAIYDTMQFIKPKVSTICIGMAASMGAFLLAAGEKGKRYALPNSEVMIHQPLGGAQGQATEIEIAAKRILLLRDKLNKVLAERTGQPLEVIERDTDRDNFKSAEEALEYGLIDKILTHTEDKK
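FRET quenching reversal measured ClpP activation: 10 microg/mL B. subtilis ClpP at pH 8 with the FRET-FV decapeptide, read at 430 nm after 320 nm excitation. The 20-min minus 0-min signal was scaled between DMSO/no-enzyme wells and ADEP (5.8 microM final).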
D2 ag – activates the human D2 dopamine receptor; P14416; 0.084% of 360,000 active; DiscoveRx PathHunter D2 beta-arrestin, luminescence, 90 min; 100% = 57 uM dopamine signal; activation, % (test concentration not listed); in the data active = activation above about 40%; inconclusive = about 15% to 40%; inactive = below about 15%; also: compound concentration not given in the record; the text of the record calls up to 30% inactive
Target sequence (P14416 whole entry, looked up): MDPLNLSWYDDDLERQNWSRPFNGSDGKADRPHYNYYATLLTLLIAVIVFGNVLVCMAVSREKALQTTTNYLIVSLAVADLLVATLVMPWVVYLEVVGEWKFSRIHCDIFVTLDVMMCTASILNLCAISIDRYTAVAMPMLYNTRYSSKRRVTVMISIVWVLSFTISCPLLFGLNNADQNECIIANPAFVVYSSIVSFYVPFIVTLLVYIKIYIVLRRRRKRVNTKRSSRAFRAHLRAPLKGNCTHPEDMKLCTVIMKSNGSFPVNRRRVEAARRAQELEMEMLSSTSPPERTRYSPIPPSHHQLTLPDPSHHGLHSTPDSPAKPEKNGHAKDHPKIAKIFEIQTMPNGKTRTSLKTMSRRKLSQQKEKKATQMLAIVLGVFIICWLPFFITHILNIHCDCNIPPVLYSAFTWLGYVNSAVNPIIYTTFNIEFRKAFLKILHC
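DiscoveRx PathHunter D2 beta-arrestin cells (2,100/well) attached overnight, then compound-stimulated 90 min at 37 C in HBSS/10 mM HEPES/0.1% Tween-20 buffer; beta-galactosidase complementation read by luminescence after 1 h at ambient temperature. Dopamine 57 uM final (EC100) as control.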
gsp antagonist – antagonists of gsp mutant (McCune-Albright syndrome); gsp-mutant cells, cAMP HTRF, 30 min; control for the full effect not named in the record; Potency, µM (doses to about 76.9 µM), inactives show at the top dose activity change, negative = inhibition, most hits filed as inhibitors; 0.4% of 340,000 active; AID 624288; active = falling curve of any shape with a large fitted effect; inconclusive = falling curve, mostly with a smaller effect; inactive = flat or rising curve; cell line not stated here;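 also: intracellular cAMP measured with PDE inhibitor Ro 20-1724 present during compound exposure; potency is read from the fitted curve at half-maximal effect; % is scaled to controls: 0 for no effect and ±100 for the full control effect; nearly all actives have a fitted effect of over 65% in size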
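Cells, 2000/well, grown 16–24 h in DMEM 10% FBS with 0.5 mg/ml G418, then compounds plus […] (300 uM addition stock), 30 min at 37C. cAMP read by HTRF (cAMP-d2 and anti-cAMP antibody-K in lysis buffer) after 30 min RT.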
* = called active by the depositor; ? = inconclusive; · = no result given; [ ] = dose if it differs, or a comment.

Each structure is followed by: Sfp inh, D2 ag, Menin-MLL FL inh, PINK1 modulator, gsp antagonist, gsp ag, ClpP mod
CSCCC(NC(=O)COc1ccccc1)C(=O)N1CCOCC1 (stereo unspecified)
    ·, 9.0, ·, -1.2%, 12.6%, -1.8%, -0.6%
Cc1[nH]c(=O)c(C(=O)/C=C/c2ccccc2)c2c1CCCC2
    7.6%, -3.5, 0.1, -4.3%[38.3 µM], -2.8%, 18.4%, -2.4%
COc1cc(CNn2c(C)n[nH]c2=S)cc(Cl)c1OCc1ccc(F)cc1
    -26.4%, -6.3, -2.4, ·, -5.7%, 36.2%, -0.1%
CCCN1C(=O)c2cccc3c(N4CCCCC4)ccc(c23)C1=O
    18.3%, 0.8, ?, 4.1%, -2.2%, ?, 1.0%
CS(=O)(=O)N(CC(=O)N1CCC(C(N)=O)CC1)c1ccc(Cl)c(C(F)(F)F)c1
    16.6%, 0.6, 0.2, 0.8%[38.3 µM], 6.8%, 7.1%, -0.3%
CC[C@]12c3[nH]c4ccc(Cl)cc4c3CCN1C(=O)[C@@H](CC(=O)NCC13CC4CC(CC(C4)C1)C3)C[C@@H]2C(=O)N1CCN(C(=O)c2ccco2)CC1
    ·, 2.8, ·, 18.4%, -1.8%, ·, -4.8%
CC1CC(=O)Nc2ccccc2N1C(=O)Cn1cnc2ccccc2c1=O (stereo unspecified)
    ·, -0.8, ·, -1.7%, 5.1%, 0.1%, 2.3%
O=C(NCCCN1CCCC1=O)c1cccnc1
    3.8%, -0.7, 7.7, 3.6%[38.3 µM], 5.1%, 6.3%, -0.8%
O=C(O)CSc1nnc(Cc2ccccc2)n1Cc1ccccc1
    3.3%, -1.7, 0.5, ?, 3.9%, 10.1%, 0.7%
Cc1cccc(C)c1NC(=O)C1CCCN(CCCc2ccccc2)C1 (stereo unspecified)
    4.6%, -5.7, 1.6, -0.3%, 2.4%, ?, 1.5%
Cc1ccc(NC(=O)c2cc(S(=O)(=O)N3CCC4(CC3)OCCO4)ccc2F)cc1
    -8.3%, -1.6, 3.2, ?, -10.5%, ?, 0.6%
O=C(O)CNC(=O)c1ccc(Oc2c(F)c(F)c(Oc3ccc(C(=O)NCC(=O)O)cc3)c(F)c2F)cc1
    13.3%, 1.0, -0.6, 0.7%, 4.2%, ?, ·
Cn1c(=O)cc(OCCCC(=O)Nc2cccnc2)c2ccccc21
    17.2%, -2.5, -1.6, 0.7%, -4.4%, -40.9%, -1.9%
CC1CCCN(S(=O)(=O)c2ccc(NC(=O)Cc3ccc(S(=O)(=O)N4CCOCC4)s3)cc2)C1 (stereo unspecified)
    ·, ?, ·, -3.2%, -1.2%, -18.5%[15.4 µM], ·
Cc1nn(-c2ccccc2)c2sc(C(=O)NC3CC3)cc12
    -3.7%, -1.5, 4.4, 2.4%[38.3 µM], -4.4%, 27.0%, ?
COCCC(=O)N1CCC(Oc2ccc(C(=O)N(C)Cc3cc(C)no3)cc2)CC1
    9.5%, -2.5, ·, -0.1%, 15.1%, 3.8%[15.4 µM], 1.2%
COCCCNC(=O)c1ccccc1SC
    -13.0%, 0.1, 0.5, 0.9%[38.3 µM], 9.1%, 7.1%, 1.3%
Cc1cc(N2CCC(C(=O)Nc3ccc(F)cc3)CC2)nc(-c2ccccc2)n1
    -3.8%, -2.4, 2.7, -1.5%, -16.3%, ?, -3.4%
COc1ccc(CCNC(=S)Nc2ccccc2)cc1
    3.5%, -4.2, 2.3, 1.5%, 0.1%, 9.6%, 0.2%
CC(=O)NC(Cc1ccccc1)C(=O)OCC(=O)c1ccccc1 (stereo unspecified)
    1.5%, -3.1, 0.8, 3.8%, 10.0%, -1.5%, -5.9%
Clc1cccc2sc(-c3nnc(-c4ccccc4)o3)c(Cl)c12
    ·, 1.4, ·, ?, 2.4%, 2.0%, -24.0%
O=S(=O)(c1ccccc1)N1CCC2(CC1)OCCN2S(=O)(=O)c1cccs1
    ·, -1.5, ·, -1.3%, -4.5%, 1.4%[15.4 µM], 33.2%
CC1Cc2ccccc2N1S(=O)(=O)c1cccc(C(=O)c2nccn2C)c1 (stereo unspecified)
    -3.1%, -0.8, 2.9, ?, -15.2%, -39.5%[inhibitor], 0.7%
O=S(=O)(Nc1cc2nc3ccccc3nc2n1Cc1ccccc1)c1ccc(Cl)cc1
    56.2µM*, 0.9, ?, ?, -7.9%, ?, -4.7%
COC(=O)c1ccc(CN2CCC(Oc3cccc(C(=O)N4CCCC4)c3)CC2)cc1
    ·, 0.3, ·, -0.9%, -5.3%, 0.3%, -2.0%
CCN1C(=O)[C@@H]2[C@H](C1=O)[C@@H]1CC(C(=O)OC)=C[C@@H](C(=O)OC)C3C1=C(C(=O)C3(CC)CC)[C@@H]2C (stereo partly specified)
    9.7%, -1.0, 8.8, 2.9%, -12.2%, ·, -1.6%
O=C(N/N=C(\c1ccccc1)c1ccccn1)c1cccc([N+](=O)[O-])c1
    10.6%, 4.1, -3.3, -1.1%, -32.7%, 2.7%, 2.5%
CCOC(=O)CNS(=O)(=O)c1ccc(S(=O)(=O)NC2CC2)cc1
    12.4%, 7.2, -2.7, -1.8%, 2.3%, 14.9%[15.4 µM], 0.8%
CCCCN(C(=O)CCC(=O)Nc1cc(C)on1)C(C(=O)NC1CCCC1)c1ccccc1C (stereo unspecified)
    -3.1%, -5.0, -0.3, 2.1%, -0.3%, 2.9%[15.4 µM], -1.2%
NC(=S)N/N=C/c1ccc(OC(=O)c2cccnc2)cc1
    5.3%, -6.9, -3.3, 0.8%, -9.3%, -1.0%, 5.4%
Cc1ccc(NC(=O)c2cccc3cccnc23)cc1
    -2.2%, -3.5, 2.9, 2.8%, ?, 9.9%, ·
COc1cc2c(cc1NC(=S)Nc1cccc3ccccc13)oc1ccccc12
    ?, -0.2, 3.4, 0.1%, -16.3%, 30.1%, 10µM*
CCC(=O)c1ccc(OCC(O)CN2CCN(c3ccccn3)CC2)cc1 (stereo unspecified)
    20.4%, 60.4*, 3.9, 0.0%, -0.3%, 5.6%, ·
CCOc1ccc2oc(C(=O)NCC3CCCO3)c(C)c2c1 (stereo unspecified)
    4.8%, 1.6, ·, 0.3%, 4.1%, 25.1%, 3.7%
O=C(CN1C(=O)C2C3C=CC(C3)C2C1=O)Nc1ccc(F)cc1 (stereo unspecified)
    5.7%, -4.3, -1.0, 2.3%, 9.9%, -49.2%[inhibitor], 2.6%
CCc1c(O)nc(SCC(=O)Nc2ccccc2)n(C(C)CC)c1=O (stereo unspecified)
    2.9%, -0.6, 0.7, -4.0%[38.3 µM], ?, 2.8%, -2.0%
O=C(O)c1cccc2c1Cc1cc([N+](=O)[O-])ccc1-2
    ·, -3.0, ·, 0.0%, -18.0%, -72.0%[inhibitor], ·
O=C(/C=C/c1ccccc1)N1CCN(c2c(Cl)cccc2[N+](=O)[O-])CC1
    -27.6%, -0.1, -1.5, -1.5%, -13.0%, -13.3%, 0.0%
Cc1ccc(N2CC(C(=O)N3CCc4ccccc4C3)CC2=O)cc1 (stereo unspecified)
    7.6%, -0.1, -0.9, 1.0%[38.3 µM], -2.8%, 7.4%, 1.2%
CCC1(c2ccc(F)cc2)NC(=O)N(CC(=O)Nc2ccc(N3CCCCC3)cc2)C1=O (stereo unspecified)
    ·, -3.7, ·, -1.9%, -0.2%, -44.8%[inhibitor], -2.0%
O=c1c2ccccc2cnn1Cc1n[nH]c(=S)n1-c1cc(Cl)cc(Cl)c1
    ?, 0.4, -4.9, -1.0%, 1.1%, ?, -1.6%
O=C1NC[C@@H](Cc2ccc(O)cc2)N(CCc2cccc(F)c2)C1=O
    9.0%, -2.0, -2.0, 1.0%, 8.1%, -2.1%, 0.5%
Cc1csc(=O)n1CC(=O)OCC(=O)c1c(N)n(C)c(=O)n(C)c1=O
    ·, -2.0, ·, -2.7%, 12.1%, 26.4%[15.4 µM], ·
C=CCc1cc(OC)ccc1OCCCCn1cncn1
    ?, 2.1, 1.3, 0.6%, 5.5%, -39.8%[inhibitor], -3.9%
CCOC(=O)C1CCN(C(c2cccs2)c2sc3nc(C)nn3c2O)CC1 (stereo unspecified)
    18.5%, 3.5, 0.9, 0.8%, -3.2%, -10.7%, 0.6%
CCOC(=O)c1c(-c2ccc(F)cc2)csc1/N=C/N(C)C
    6.9%, 0.5, 0.1, -0.2%, 0.8%, -8.5%[15.4 µM], 25.1µM*
CC1CCN(C(=O)CNC(=O)CNC(=O)Cc2ccccc2)CC1
    23.3%, -2.8, ·, 0.9%, 6.3%, -7.1%, 1.9%
CCOC(=O)c1[nH]c(C)c(/C(O)=C2\C(=O)C(=O)N(CCN3CCOCC3)C2c2cccs2)c1C (stereo unspecified)
    1.0%, -2.7, 1.7, ·, 15.5%, ?, -3.1%
CC12CCC(C(=O)NNC(=O)c3ccc(Br)cc3)(OC1=O)C2(C)C (stereo unspecified)
    7.1%, -4.1, ·, -0.1%, 0.5%, 6.7%, -0.8%
Cc1c(C#N)c2ncn(CCCN(C)C)c(=O)c2n1-c1ccccc1
    12.3%, -3.1, 4.8, -2.3%, 6.4%, -0.3%, -1.4%
CN(CC(=O)Nc1ccc(F)c(F)c1F)C(=O)C1CC(=O)N(C2CCCC2)C1 (stereo unspecified)
    ·, -9.0, ·, -3.7%, 9.1%, 10.5%[15.4 µM], ·
Cc1nnc(SCc2cccs2)[nH]c1=O
    17.9%, -0.4, -1.1, -2.1%, -3.1%, -25.8%, 4.3%
CC[C@]12c3[nH]c4cc(-c5ccco5)ccc4c3CCN1C(=O)[C@@H](CC(=O)NCc1cccc(C(F)(F)F)c1)C[C@@H]2C(=O)N1CCN(C(=O)C2CC2)CC1
    ·, 0.7, ·, 4.2%, -20.5%, ·, 3.6%
CCN1C(=O)c2cccc3c(S(=O)(=O)Nc4ncccc4C)ccc1c23
    4.5%, 1.7, 4.2, -1.0%[38.3 µM], 17.6%, 15.0%, -1.8%
